NPYLR7 ag: activates Aedes aegypti NPYLR7 receptor; HEK293T NPYLR7/Galpha15, GCaMP6s calcium fluorescence; activation, % at 10 µM; actives 0.15% (n = 270,000); in the data active = activation above about 40%;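 also: 0% = vehicle and 100% = reference agonist at the receptor; some compounds past the cut are filed as inactive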
NPYLR7 ag max-min: also measured in NPYLR7 ag; calls as there; activation, %; measured here: Max-Min RFU normalised activation; some inactives read as strong as hits;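 span of the calcium signal over five minutes; 0% = vehicle and 100% = native peptide agonist; compound fluorescence can raise it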
An asterisk follows results filed as active.

SMILES | NPYLR7 ag | NPYLR7 ag max-min
COc1ccc(-c2nnc3ccc(SCC(=O)N4CCc5ccccc54)nn23)cc1 | 18 | 18
CC(=O)N(CN1C(=O)c2cc(Cl)c(Cl)cc2C1=O)c1cccc(C)c1 | -9 | -11
C=CCn1c(SCC(=O)NC(=O)c2cccn2C)nnc1C1CCCCC1 | 0 | 0
COc1cccc(C2c3c(oc4cc(C)c(Cl)cc4c3=O)C(=O)N2c2cc(C)on2)c1 (centres undefined) | 2 | 0
COc1ccc(Cl)cc1NCC(=O)N(c1ccccc1)C1CCS(=O)(=O)C1 (centres undefined) | 5 | 2
Cc1ccsc1[C@@H]1CCN(C(=O)c2ccccc2-n2cccn2)C[C@H]1O | -2 | 12
COCC(C)OC(=O)C1CC1c1cccc(F)c1F (centres undefined) | 8 | 6
Cc1ccccc1CC1S/C(=C(/C#N)C(N)=O)N(c2ccc(Br)cc2)C1=O (centres undefined) | 5 | 8
COC(=O)c1cc2n(n1)CCN(C(=O)CCn1c(C)nc3ccccc31)C2 | 12 | 10
C=CCn1c(OCc2ccccc2)n[nH]c1=S | -5 | -11
O=C(c1cc(N2CCSCC2)nc2ccccc12)N1CC=CCC1 | -12 | -6
CC(=O)N1CCN=C1SCc1ccc(C)cc1 | 1 | -3

Molecules above that contain a halogen (5):
SMILES | NPYLR7 ag | NPYLR7 ag max-min
CC(=O)N(CN1C(=O)c2cc(Cl)c(Cl)cc2C1=O)c1cccc(C)c1 | -9 | -11
COc1cccc(C2c3c(oc4cc(C)c(Cl)cc4c3=O)C(=O)N2c2cc(C)on2)c1 (centres undefined) | 2 | 0
COc1ccc(Cl)cc1NCC(=O)N(c1ccccc1)C1CCS(=O)(=O)C1 (centres undefined) | 5 | 2
COCC(C)OC(=O)C1CC1c1cccc(F)c1F (centres undefined) | 8 | 6
Cc1ccccc1CC1S/C(=C(/C#N)C(N)=O)N(c2ccc(Br)cc2)C1=O (centres undefined) | 5 | 8

A portion of the library; the hit share may differ from the screen's.
